# Bead autofluor: compound fluorescence in toxin protease inhibitor counterscreen | compound autofluorescence counterscreen, microsphere flow cytometry; active compounds read high | fluorescence intensity (test concentration not listed) | actives 3.1% (n = 360,000) | AID 624483;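 active means at least 3 SD above the mean of all compounds, about 16000 in these data; inconclusive means too few beads counted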;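 further: 100 nL of 1 mM stock went into each well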
# BJeLR viability: kills HRASV12-expressing BJeLR cells; actives 0.17% (n = 300,000); inhibition, % (no concentration beside the values); BJeLR (HRASV12) viability, CellTiter-Glo ATP luminescence, 48 h; reference of the scale not given here;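 active means replicate mean above 50%; inconclusive means above 50% but judged a plate artefact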;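 further: 50 nL library stock added to about 25 µL; numbers are from one replicate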
# Mtb hypoxia rep: Mtb hypoxia fluorescent reporter inhibition; M. tuberculosis hypoxia-regulated fluorescent reporter, fluorescence; fluorescence inhibition, % (test concentration not listed); actives 0.1% (n = 300,000);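 active means 35 to 45% if threefold the growth effect, above 45% if 1.5-fold the growth effect; inactive means the rest, general growth blockers included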;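 further: wells of about 50 µL received 100 nL stock; 0% = vehicle wells and 100% = reference inhibitor wells; whole bacteria with a GFP reporter of the hypoxia response; strong numbers were not always called active; many hits fall short of the cut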
# Sa RN4220 lethal: S. aureus RN4220 growth inhibition. OD600, 16 h. inhibition, % (concentration not given with the values). actives 0.33% (n = 330,000);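 active means z-score of -3 or lower and OD600 up to 0.18 on both plates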;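 further: plate controls were untreated cells for no effect and reference antibiotic for full effect; stock transfer was 100 nL into about 80 µL; one replicate is shown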
# Sa ugtP lethal: growth inhibition of S. aureus ugtP deletion strain; actives 0.54% (n = 330,000); S. aureus RN4220 ugtP deletion, OD600 growth, 16 h; some inactives read as strong as hits; growth inhibition, % (concentration not given with the values);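 active means z-score under -3 and OD600 up to 0.15 on both plates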;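 further: plate controls were untreated wells for no effect and antibiotic for full effect; wells of about 80 µL received 100 nL stock; the first replicate is given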
# PrP 5UTR inh: suppresses PrP 5' UTR mRNA reporter expression; inhibition, % (no concentration beside the values); actives 0.35% (n = 340,000); cell-based PrP 5' UTR mRNA reporter, plate reader; AID 488862;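 active means every replicate at 50% or more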;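 further: 0 = median of the neutral control wells; tested in H4 reporter cells; numbers are from one replicate; inactives centre near -14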
# Mtb hypoxia rep growth: recorded beside Mtb hypoxia rep, whose call it bears; growth inhibition, %; measured here: M. tuberculosis growth (absorbance);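 0% = vehicle and 100% = reference antibiotic; read after six days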
# * hit, by the source's call; ? = inconclusive; · = not tested or not shown.
Compound	Bead autofluor	BJeLR viability	Mtb hypoxia rep	Mtb hypoxia rep growth	Sa RN4220 lethal	Sa ugtP lethal	PrP 5UTR inh
Cc1ccc(Oc2cnc3ccccc3n2)cc1	20600*	8.6	-4.2	1.2	-1.4	3.9	-65.7
CC(=O)Nc1ccc(OCC(O)CN2CCN(c3cccc(Cl)c3)CC2)cc1 (stereo unspecified)	9503	16.5	-5.2	5.9	4.7	1.5	-14.5
O=C(CCN1C(=O)/C(=C\c2ccccc2)SC1=S)NCCCN1CCOCC1	4848	-2.6	10.0	-5.6	3.9	13.2	-8.5
CCOc1ccc(CCNC(=O)C2CC=CCC2C(=O)OC(C)C)cc1OCC (stereo unspecified)	3667	10.2	-7.4	0.4	2.5	6.2	-15.8
N/C(Cc1ccc(Cl)c(Cl)c1)=N\OC(=O)c1cccs1	15347	2.4	6.9	3.4	0.8	14.7	-28.9
Cc1scc(C(=O)N/N=C/c2ccc(Cl)s2)c1C	10156	0.6	·	·	·	·	-147.5
c1ccc(Cc2nnc3sc(-c4cccnc4)nn23)cc1	16689*	4.6	2.8	3.6	7.0	12.3	-8.9
Cc1cc(Nc2ccccc2)n(C(=O)c2ccccc2)n1	8785	-2.8	3.8	5.6	-0.1	24.6	-36.6
O=S(=O)(Cc1cc(-c2ccccc2Cl)no1)c1ccccc1	3907	-0.6	0.9	3.0	7.6	13.1	-62.5
Cc1ccc(NC(=O)CNc2ccc(OC(C)C)cc2)c(C)c1	19175*	·	22.5	26.9	-1.2	-8.8	-19.6
CCCN(CCC)CC(=O)N1CC(=O)Nc2ccccc21	3679	0.4	10.1	1.1	4.2	3.6	-9.7
CCOc1ccc(CC(=O)Nc2c(C(N)=O)oc3ccc(Br)cc23)cc1OCC	5271	7.3	2.3	2.8	-10.8	-10.9	-5.7
O=C(Oc1ccc(Br)cc1)C1CC(=O)N(c2ccc(F)cc2)C1 (stereo unspecified)	6881	11.4	19.1	5.2	4.4	3.3	-61.4
COc1ccc2[nH]c(C)c(CN3CCCCC3)c(=O)c2c1	10627	-0.3	3.2	-3.4	6.7	3.6	-25.4
Cn1c(SCC(=O)NCc2ccc3c(c2)OCO3)nnc1-c1cc2ccccc2cc1O	?	-8.7	16.7	5.6	8.0	2.3	-45.9

# The list goes on:
Compound	Bead autofluor	BJeLR viability	Mtb hypoxia rep	Mtb hypoxia rep growth	Sa RN4220 lethal	Sa ugtP lethal	PrP 5UTR inh
Cc1ccc(C(=O)NCC(=O)OCC(=O)NCC(F)(F)F)cc1	3777	-6.3	15.6	6.3	3.7	4.2	-21.8
CC(=O)N1CCN(c2ccc(NC(=O)c3ccc(C)c([N+](=O)[O-])c3)cc2)CC1	?	-11.2	1.6	-5.8	4.6	5.5	6.0
Cc1ccc(CNCC2CCCO2)s1 (stereo unspecified)	4289	2.5	·	·	-1.0	13.7	-13.6
COc1ccccc1NC(=O)N1CCCC(c2nc3c(nnn3Cc3ccc(C)cc3)c(=O)[nH]2)C1 (stereo unspecified)	10238	4.8	-0.1	2.3	6.2	2.6	-3.9
C=CCN(CC=C)CCOc1cccc2ccccc12	2222	-14.2	-0.6	2.0	9.4	32.1	-14.5
CC(C)N(CCCNC(=O)c1ccc(N2CCCC2=O)cc1)Cc1ccccc1	4246	3.9	3.7	-2.2	2.1	-0.5	-30.9
CCn1c(C)nc2cc(C(=O)NNS(=O)(=O)c3ccc(C)cc3C)ccc21	22540*	-0.5	6.2	7.2	-1.5	4.7	-14.3
O=C(c1ccco1)N1CCN(C2CC(=O)N(c3ccc(C(F)(F)F)cc3)C2=O)CC1 (stereo unspecified)	4906	-9.2	-3.7	-1.5	0.0	-4.4	-3.7
CCc1c(C)sc(NC(=O)CSc2nc3c(c(C(F)(F)F)n2)CCc2ccccc2-3)c1C#N	21133*	-3.5	-1.1	-8.0	1.1	-1.3	-32.6
CCOc1ccccc1C(=O)Nc1cc(OC)ccc1OC	11262	-6.9	17.1	17.4	9.2	-23.1	-1.4
CCOC(=O)Cc1nnc(NC(=O)C(CC)Sc2nc(C)cc(C)n2)s1 (stereo unspecified)	6181	-12.8	5.9	-1.4	5.6	-6.9	0.4
Cc1ccc(NC(=O)C(OC(=O)c2ccccc2Cl)c2ccccc2)cc1Cl (stereo unspecified)	11317	1.5	-2.0	8.3	-6.3	17.1	-25.6
O=[N+]([O-])c1ccccc1/C=N/NC1=NS(=O)(=O)c2ccccc21	2040	-0.5	·	·	·	·	-4.6
COC(=O)c1ccccc1NC(=S)N(Cc1ccc2c(c1)OCO2)Cc1cc2cc(OC)ccc2[nH]c1=O	2494	3.2	-3.4	8.8	-3.5	-3.7	-16.9
Cc1cccc(NC(=O)CN(C)S(=O)(=O)c2cnc[nH]2)c1	3035	-7.1	14.1	9.4	2.1	2.0	-23.1

# Next section:
Compound	Bead autofluor	BJeLR viability	Mtb hypoxia rep	Mtb hypoxia rep growth	Sa RN4220 lethal	Sa ugtP lethal	PrP 5UTR inh
CCOP(=O)(NC(c1ccccc1)c1nc2ccccc2[nH]c1=O)OCC (stereo unspecified)	3254	-3.0	-6.4	-12.5	5.6	5.8	-2.5
CC1(C)C2CC=C(C=NNC(=O)c3ccc(Cl)cc3)C1C2 (stereo unspecified)	·	·	9.7	11.5	-1.0	5.9	·
CC(O)CN(C)CC/C=C1/c2ccccc2CSc2ccccc21 (stereo unspecified)	1999	4.7	-2.3	-4.4	-0.3	0.8	-15.2
CCN1C(=O)/C(=C\c2ccc(-c3ccc([N+](=O)[O-])cc3OC)o2)SC1=Nc1cccc(C(=O)O)c1	4016	4.0	15.3	13.3	37.4	39.7	-22.1
Cc1nn(C)c(Cl)c1CN1CCN(CC(C)C)C(CCO)C1 (stereo unspecified)	2193	-8.4	2.3	1.8	1.3	4.0	-4.8
O=C1c2ccccc2C(Nc2ccccc2)N1c1ccc(Cl)cn1 (stereo unspecified)	5393	·	8.6	9.4	-16.4	-5.7	-28.9
Nc1nnc(Cc2ccc(F)cc2)s1	4021	8.5	2.1	-0.7	0.9	1.6	-6.6
Cc1sc(NC(=S)NC(=O)C2CCCCC2)c(C(N)=O)c1C	2817	-24.9	4.1	-1.7	3.8	-5.3	-62.3
Cc1nn(Cc2ccc(C(=O)NN)o2)c(C)c1Cl	3722	-2.5	-6.1	-3.6	-5.9	-5.4	-3.3
N/C(Cc1ccc([N+](=O)[O-])cc1)=N\OC(=O)COc1ccc2ccccc2c1	7404	-9.3	·	·	·	·	-16.3
CCS(=O)(=O)CCSc1nc(C)cc(C)n1	2427	-3.7	-2.5	-0.9	17.6	19.4	-5.0
Cc1ccc(S(=O)(=O)N(C)c2ccc(OC(=O)CN3C(=O)NC4(CCCC4)C3=O)cc2)cc1	6031	6.5	-1.3	3.4	3.6	-3.5	-7.0
COc1cc(CN2C(=S)NC(C)(C)CC2(C)O)cc(OC)c1 (stereo unspecified)	2093	12.0	-0.3	-10.2	3.4	6.9	9.4
Cc1cc(OCC(=O)OCC(=O)c2ccc[nH]2)ccc1Cl	·	·	0.6	-1.5	-0.4	0.7	-16.8
Cc1ccc([N+](=O)[O-])cc1NC(=O)CN1CCCCC1	3618	-7.2	·	·	-3.7	-6.2	-5.5

# Molecules from the list above that contain bromine:
Compound	Bead autofluor	BJeLR viability	Mtb hypoxia rep	Mtb hypoxia rep growth	Sa RN4220 lethal	Sa ugtP lethal	PrP 5UTR inh
CCOc1ccc(CC(=O)Nc2c(C(N)=O)oc3ccc(Br)cc23)cc1OCC	5271	7.3	2.3	2.8	-10.8	-10.9	-5.7
O=C(Oc1ccc(Br)cc1)C1CC(=O)N(c2ccc(F)cc2)C1 (stereo unspecified)	6881	11.4	19.1	5.2	4.4	3.3	-61.4

# (cont.)
Compound	Bead autofluor	BJeLR viability	Mtb hypoxia rep	Mtb hypoxia rep growth	Sa RN4220 lethal	Sa ugtP lethal	PrP 5UTR inh
O=C(Nc1ccc(Cl)cc1)N1CCC(CO)(Cc2ccccc2)CC1	4825	15.4	8.8	5.1	-5.8	5.8	-16.3
CC(C)[C@H](NC(=O)OCc1ccccc1)C(=O)OCC(=O)Nc1c(F)cccc1F	2112	3.0	·	·	·	·	-13.8
COc1cccc(C2=NOC(C(=O)NCc3cccs3)C2)c1 (stereo unspecified)	4175	-3.4	2.6	-1.9	-2.0	3.4	-25.7
CCCCNC(=O)N1CCc2ccccc2C1	2450	-5.1	·	·	3.3	8.1	-27.3
O=S(=O)(Nc1ccccc1N1CCCCC1)c1cccs1	·	11.5	10.9	1.0	7.6	8.9	-26.7
CCOC(=O)CC(SP1(=S)OCC2(CCCCO2)C(C2CCCCO2)O1)C(=O)OCC (stereo unspecified)	3368	·	6.3	4.7	1.5	12.2	-1.5
COc1ccc(C(=O)CSc2nnc(-c3cc4ccccc4cc3O)n2Cc2ccco2)cc1	23275*	17.4	4.4	3.9	6.6	-22.2	-25.8
Cc1cc(/C=C(\C#N)C(=O)NC2CCCCCC2)c(C)[nH]1	2275	0.0	·	·	·	·	-42.4
COCCN(C(=O)c1snc(C(N)=O)c1N)C(C(=O)NC1CCCCC1)c1ccc(N(C)C)cc1 (stereo unspecified)	3468	-11.7	8.7	3.2	4.1	6.5	7.7
COc1cccc2c1SCc1ccccc1C2CC(N)=O (stereo unspecified)	6076	-11.1	15.0	0.7	-3.0	6.4	-21.4
COc1ccccc1NS(=O)(=O)c1cccc(C(=O)N2CCCC2)c1	3666	·	18.9	13.5	0.7	-2.0	-34.0
COc1ccc(NC(=O)c2ccco2)c(NC(=O)c2ccc([N+](=O)[O-])cc2)c1	5510	11.4	1.0	4.4	-0.2	-0.3	-8.6
Cc1cc(C)n(CCNC(=O)C2CCC(=O)N(Cc3ccc(Cl)cc3)C2)n1 (stereo unspecified)	5433	2.3	3.8	4.3	3.9	3.4	-3.9
O=C(N/N=C\c1ccc[nH]1)c1cncc(Br)c1	6207	-1.8	·	·	·	·	-4.1
N#Cc1nc(Cc2ccccc2)oc1N1CCC(Cc2ccccc2)CC1	2222	-4.4	-0.5	-11.3	-7.0	49.7	-19.6

# The list continues:
Compound	Bead autofluor	BJeLR viability	Mtb hypoxia rep	Mtb hypoxia rep growth	Sa RN4220 lethal	Sa ugtP lethal	PrP 5UTR inh
CC(Oc1cccc2cccnc12)C(=O)NN=Cc1ccccc1 (stereo unspecified)	·	·	-7.5	-3.0	-1.6	-8.9	·
Cc1ccc(C(=O)NCC(=O)OCC(=O)Nc2ccc(Cl)cc2C(F)(F)F)cc1C	2860	12.5	5.6	1.5	1.0	7.3	-14.1
c1nc(NCc2ccc3c(c2)OCO3)c2cc(-c3ccc4c(c3)OCCO4)ccc2n1	4520	·	2.0	13.4	-8.6	-38.6	-11.5
CCCCn1c(CNC(=O)C23CC4CC(CC(C4)C2)C3)nnc1SCC(=O)Nc1nnc(C)s1	5513	1.1	0.9	-2.9	5.6	4.4	-11.0
Cc1ccc(N2CC(=O)N(c3ccc(C)cc3)CC2=O)cc1	?	-12.8	17.5	-0.5	3.4	8.1	-9.5
COc1cc(NC(=O)c2ccccc2)c(OC)cc1NC(=O)CN1CCN(c2ccccn2)CC1	3986	-1.5	·	·	1.8	-16.9	-6.9
COc1ccccc1-c1nnc2n1N=C(C)CS2	11424	-7.2	-0.2	0.8	1.2	-1.1	-11.8
CCOC(=O)C1=C(CC)Nc2ccccc2N=C1NC(=O)Nc1ccccc1OC	3807	0.0	17.4	13.9	1.3	-4.2	-19.7
CC(=NNC(=O)c1ccc(-c2ccccc2)cc1)c1cccc(O)c1	·	·	10.0	6.9	3.4	-1.2	·
COc1ccc(C=NNC(=O)C(C)N(c2ccc(OC)cc2)S(C)(=O)=O)cc1 (stereo unspecified)	·	·	8.2	-1.3	0.9	2.4	·
Cc1cccc(C(=O)NCC(=O)N2CCN(S(=O)(=O)/C=C/c3ccccc3)CC2)c1	3658	·	-11.0	3.0	-1.6	5.0	-11.1
COc1cc(S(=O)(=O)N(Cc2ccc(C)cc2)Cc2ccco2)ccc1-n1cnnn1	5814	5.5	12.1	12.9	5.8	22.1	-17.5
O=C(c1cc([N+](=O)[O-])cc([N+](=O)[O-])c1)N1CCN(C(=O)c2ccco2)CC1	5330	11.6	22.0	31.6	2.4	9.3	-16.7
O=C(c1ccncc1)c1ccc(N2CCN(C3CC(=O)N(Cc4cccs4)C3=O)CC2)cc1 (stereo unspecified)	5581	-6.6	5.2	7.3	2.0	11.0	-6.1
CCSc1nccc(-c2nn(-c3ccc(C)cc3)ccc2=O)n1	2778	21.0	·	·	4.4	3.8	-34.8
Cc1ccccc1N=C1N=C(N)c2ccccc21	8680	5.0	2.1	1.5	5.7	-1.0	-87.4

# Compound activity (PubChem BioAssay)
